Bioassay records as filed in PubChem.
miR-21 FLuc: raises the signal of a miR-21 reporter | Potency, µM (doses to about 38.3 µM), for inactives: at the top dose reporter change, positive = more light | AID 2288 | 340,000 tested, under 10 active | HeLa miR-21 FLuc reporter, luciferase, 48 h; active = well fitted rising curve with a large enough effect; inconclusive = small, poorly fitted or top-dose-only effect; inactive = no such curve, though single readings can be large or run the other way;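 note: % of control where 0% means no effect; miR-21 action dims this reporter so a rising signal means less miR-21 action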
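Compounds were titrated across several concentrations (up to approximately 40 uM) and incubated 48 hours with HeLa miR-21-FLuc reporter cells (miR-21 target sequence downstream of FLuc, endogenous miR-21). Readout was firefly luciferase luminescence after lytic detection reagent.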
GLA inh pH 4.5: alpha-galactosidase A (human) inhibition, pH 4.5; P06280; purified enzyme, 4-MU-alpha-Gal fluorescence, pH 4.5; activity change, negative = inhibition, % at 105 µM; 230,000 tested, under 10 active; AID 1467; inconclusive = small, poorly fitted or top-dose-only inhibition, or a rising curve; inactive = flat fitted curve, though single readings scatter; no compound was filed as active;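 note: 0% = full activity with enzyme and -100% = basal without enzyme; dose as in the result columns while the protocol names 77 µM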
Target sequence (P06280 whole entry, looked up): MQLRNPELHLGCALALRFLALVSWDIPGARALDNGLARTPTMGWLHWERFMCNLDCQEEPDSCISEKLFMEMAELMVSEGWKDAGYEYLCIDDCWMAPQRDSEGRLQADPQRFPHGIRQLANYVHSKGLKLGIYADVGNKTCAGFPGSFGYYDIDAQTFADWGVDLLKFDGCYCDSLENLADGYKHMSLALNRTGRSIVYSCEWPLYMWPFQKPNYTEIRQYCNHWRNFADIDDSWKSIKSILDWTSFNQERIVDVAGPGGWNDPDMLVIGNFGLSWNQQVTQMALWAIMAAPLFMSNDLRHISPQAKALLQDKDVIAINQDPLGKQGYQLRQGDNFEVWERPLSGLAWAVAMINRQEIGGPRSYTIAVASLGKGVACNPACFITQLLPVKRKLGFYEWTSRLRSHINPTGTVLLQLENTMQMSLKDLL
Rango dissoc inh: prevents RanGTP from dissociating the Rango-importin beta complex; O95149+P62826; Biochemical FRET Rango-importin beta, RanGTP-induced dissociation; Potency, µM (doses to about 46.1 µM), inactives show at the top dose activity change, negative = inhibition; actives 0.071% (n = 340,000); AID 540253; active means falling FRET ratio curve, often poorly fitted, with flat reads before Ran was added; inconclusive means other falling curves, or compound fluorescence or quenching; inactive means flat or rising ratio curve;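 note: potency is the fitted concentration of half-maximal effect; % of control where 0% means no effect; nearly all actives have a fitted effect of over 45% in size; -100% = wells without RanGTP and RCC1; the record marks most hits as doubtful in a second field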
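Rango FRET biosensor (snurportin-1 IBB flanked by N-terminal EYFP and C-terminal CFP10) at 0.1 uM, with 0.25 uM importin beta in PBS, 1mM DTT, 0.02% Tween-20, 0.1% BSA. 0.6 uM Ran, 2mM GTP and 0.2 uM RCC1 were then added for 45 min at room temperature. Inhibition read as loss of FRET rise.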
Rango-impB inh: Rango-importin beta binding inhibition. Rango CFP/YFP FRET sensor + importin beta, 45 min. Potency, µM (series often up to 92.2 µM), inactives show at the top dose inhibition of complex formation. actives 0.031% (n = 340,000). AID 540263. Q14974; active = rising FRET ratio curve, often small or poorly fitted; inconclusive = mostly compound fluorescence or quenching in the first reads; inactive = flat curves in all reads;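 note: potency is the fitted concentration of half-maximal effect; 0% = DMSO wells and 100% = buffer wells lacking importin beta; nearly all actives have a fitted effect of over 15% in size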
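FRET biosensor Rango (snurportin 1 IBB between N-terminal EYFP and C-terminal Cerulean), 50 nM in PBS/1 mM DTT/0.02% Tween-20/0.1% BSA, preincubated 5 min RT with compound; 0.125 microM importin beta added, 45 min RT, CFP/YFP FRET ratio read.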
* = called active by the depositor; ? = inconclusive; / = not tested or not shown. An excerpt, so the mix of outcomes need not match the whole.

SMILES | miR-21 FLuc | GLA inh pH 4.5 | Rango dissoc inh | Rango-impB inh
CSc1nc2nc(-c3ccccc3)cc(C(F)(F)F)n2n1 | -3% | -3 | 13% | 3.9%
Cc1cc(C)cc(NC(=O)c2ccc(S(=O)(=O)C(F)F)cc2)c1 | -44% | -4 | 7% | 1.1%
CCOC(=O)C(/C(C)=N/NC(=O)C1CC1c1ccccc1)C(C)C (stereo not given) | -12% | 4 | 19% | 0.5%
Cc1ccc(C)c(S(=O)(=O)N2CCC3(CC2)OCCN3S(=O)(=O)c2cccs2)c1 | / | / | -16% | -2.2%
CCOC(=O)c1sc2nc3c(cc2c1N)C(=O)CC(C)(C)C3 | -22% | 2 | 11% | 2.4%
O=C(COC(=O)COc1ccccc1[N+](=O)[O-])NC1CCCC1 | -1% | 7 | 1% | 1.5%
CCNc1nc(NCC)nc(-n2nc(C)cc2C)n1 | 13% | 4 | 0% | 0.2%
OCCN(Cc1ccccc1)CC1CCCCC1 | -5% | 5 | 4% | -1.2%
CCN(C(=O)CSc1nnc(-c2ccccc2Cl)n1C1CCCC1)C1CCS(=O)(=O)C1 (stereo not given) | -6% | 3 | 8% | 1.8%
Cc1cccc(C)c1OCC(O)CNC(C)C (stereo not given) | -5% | 0 | 3% | -0.3%
Nc1nnnn1/N=C/c1ccc(Br)cc1 | -2% | / | -7% | 5.3%
COc1cccc(CN2CC(C(=O)NCCn3ccc(C)n3)CCC2=O)c1 (stereo not given) | 0% | / | 24% | 4.1%
CCOc1cccc(-c2nnc3sc(-c4ccco4)nn23)c1 | -8% | 2 | 2% | -0.3%
O=C(NC1CCCCC1)c1cc(S(=O)(=O)N2CCOCC2)ccc1Cl | 1% | / | 0% | 2.0%
CC(C)(C)OC(=O)NCCc1nnc(SCc2ccccc2)o1 | -5% | 0 | -9% | -0.3%
Cc1cccc(C)c1NC(=O)c1ccc(-c2ccc(Cl)cc2Cl)o1 | 16% | 2 | 0% | -0.1%
COc1cccc(NC(=O)CN(C)C(=O)COc2cc(C)ccc2Cl)c1 | / | / | -1% | 0.1%
COc1ccc(COC(=O)N/N=C(\C)CC(=O)Nc2c(C)cc(C)cc2C)cc1 | -10% | 1 | -3% | 0.2%
Cc1ccc(CNC(=O)c2ccc3c(c2)NC(=O)CS3)cc1 | -6% | / | 0% | -1.0%
C/C(=N\NC(=O)c1ccc(OC2CCCC2)cc1)c1ccc(C)s1 | 0% | 2 | -2% | 0.8%
COc1ccc(NC(=O)CSc2nnnn2Cc2ccccc2)cc1 | 0% | 5 | -1% | 4.8%
CC1CC(C)CN(C(=O)C(C)N2CCN(S(=O)(=O)c3cccs3)CC2)C1 (stereo not given) | / | / | ? | ?
Cc1ccc(CC2C(=O)N(c3ccc(C)cc3)C(=O)C2C)cc1 (stereo not given) | -27% | 5 | 28% | -2.6%
CCOc1ccccc1/C=N/Nc1cc(C)nc2ccc(C)cc12 | -19% | / | -4% | -5.0%
COc1ccc(-c2cn(-c3ccc(C)cc3)c(=O)n2CC(=O)Nc2cccc(F)c2)cc1 | -12% | -27 | 2% | -6.6%
Cc1cccc(NC(=S)N/N=C/c2ccc([N+](=O)[O-])s2)c1 | 21% | -9 | 2% | -0.3%
COc1cccc(-c2ncc3ccccc3c2COC(=O)c2ccc(Br)cc2)c1 | / | / | 9% | -3.5%
Fc1ccccc1CN(CCN1CCOCC1)C(=S)Nc1ccccc1Cl | 0% | 2 | 8% | -1.2%
COc1ccc(-c2sc3ccccc3c2-c2ccc(O)cc2)cc1 | / | / | 0% | 1.2%
CCc1c(C#N)c(SCCC(=O)Nc2cccc(OC)c2)nc2c1C(=O)CC(C)(C)C2 | 11% | -13 | -5% | -1.0%
c1ccc(CSCc2nc3ccccc3[nH]2)cc1 | -72% | 1 | -12% | -1.2%
NC(=O)C(=O)NN=C1C2CC3CC(C2)CC1C3 | -9% | -6 | 1% | ?
COc1ccccc1CN1CC(C(=O)N(CCO)Cc2cccs2)CCC1=O (stereo not given) | -6% | / | -11% | -2.2%
COc1cccc(-n2nnnc2SCC(=O)NCCc2ccccc2)c1 | 0% | 0 | -17% | -2.3%
O=C(CCCc1ccccc1)Nc1cccnc1Cl | -31% | -5 | 7% | 6.2%
Cc1ccc(C2C(C#N)=C(N)Oc3c2oc(CO)cc3=O)o1 (stereo not given) | -13% | -4 | 4% | -3.2%
C=CCn1c(N)c(S(=O)(=O)c2cccs2)c2nc3ccccc3nc21 | -6% | ? | -17% | ?
CCc1noc2c1/C(=N\O)CC(c1ccccc1)C2 (stereo not given) | -13% | 2 | 18% | -4.9%
Cc1ccc(S(=O)(=O)N2CCOCC2)cc1NC(=O)CNCC1CCCCC1 | 0% | -3 | 9% | 4.1%
COc1ccc(C=NC(CO)C(O)c2ccc([N+](=O)[O-])cc2)cc1 (stereo not given) | -4% | 10 | 4% | -1.9%

21 entries from above, with values ahead of the structure.
miR-21 FLuc,GLA inh pH 4.5,Rango dissoc inh,Rango-impB inh,compound
-6%,/,0%,-1.0%,Cc1ccc(CNC(=O)c2ccc3c(c2)NC(=O)CS3)cc1
0%,2,-2%,0.8%,C/C(=N\NC(=O)c1ccc(OC2CCCC2)cc1)c1ccc(C)s1
0%,5,-1%,4.8%,COc1ccc(NC(=O)CSc2nnnn2Cc2ccccc2)cc1
/,/,?,?,CC1CC(C)CN(C(=O)C(C)N2CCN(S(=O)(=O)c3cccs3)CC2)C1 (stereo not given)
-27%,5,28%,-2.6%,Cc1ccc(CC2C(=O)N(c3ccc(C)cc3)C(=O)C2C)cc1 (stereo not given)
-19%,/,-4%,-5.0%,CCOc1ccccc1/C=N/Nc1cc(C)nc2ccc(C)cc12
-12%,-27,2%,-6.6%,COc1ccc(-c2cn(-c3ccc(C)cc3)c(=O)n2CC(=O)Nc2cccc(F)c2)cc1
21%,-9,2%,-0.3%,Cc1cccc(NC(=S)N/N=C/c2ccc([N+](=O)[O-])s2)c1
/,/,9%,-3.5%,COc1cccc(-c2ncc3ccccc3c2COC(=O)c2ccc(Br)cc2)c1
0%,2,8%,-1.2%,Fc1ccccc1CN(CCN1CCOCC1)C(=S)Nc1ccccc1Cl
/,/,0%,1.2%,COc1ccc(-c2sc3ccccc3c2-c2ccc(O)cc2)cc1
11%,-13,-5%,-1.0%,CCc1c(C#N)c(SCCC(=O)Nc2cccc(OC)c2)nc2c1C(=O)CC(C)(C)C2
-72%,1,-12%,-1.2%,c1ccc(CSCc2nc3ccccc3[nH]2)cc1
-9%,-6,1%,?,NC(=O)C(=O)NN=C1C2CC3CC(C2)CC1C3
-6%,/,-11%,-2.2%,COc1ccccc1CN1CC(C(=O)N(CCO)Cc2cccs2)CCC1=O (stereo not given)
0%,0,-17%,-2.3%,COc1cccc(-n2nnnc2SCC(=O)NCCc2ccccc2)c1
-31%,-5,7%,6.2%,O=C(CCCc1ccccc1)Nc1cccnc1Cl
-13%,-4,4%,-3.2%,Cc1ccc(C2C(C#N)=C(N)Oc3c2oc(CO)cc3=O)o1 (stereo not given)
-6%,?,-17%,?,C=CCn1c(N)c(S(=O)(=O)c2cccs2)c2nc3ccccc3nc21
-13%,2,18%,-4.9%,CCc1noc2c1/C(=N\O)CC(c1ccccc1)C2 (stereo not given)
0%,-3,9%,4.1%,Cc1ccc(S(=O)(=O)N2CCOCC2)cc1NC(=O)CNCC1CCCCC1

(continued)
SMILES | miR-21 FLuc | GLA inh pH 4.5 | Rango dissoc inh | Rango-impB inh
O=C(c1ccc(Cl)c([N+](=O)[O-])c1)N(Cc1ccccc1)C1CCS(=O)(=O)C1 (stereo not given) | 0% | -2 | -15% | 0.2%
COc1ccc(S(=O)(=O)N(C)CC(=O)Nc2ccc(C)cc2)cc1OC | -2% | 7 | -2% | 0.4%
Cc1ccc(C(=O)CSc2cc(C)[nH]c(=O)n2)cc1 | -23% | / | -14% | ?
O=C(/C=C/c1ccco1)Nc1ccc(Oc2ccccc2)cc1 | 9% | -2 | -9% | -1.3%
O=c1c2c(nc3nc(CCc4ccccc4)[nH]n13)CCC2 | -6% | 4 | -23% | -1.5%
COc1ccc(-c2cc(C(=O)OC(C)C(=O)Nc3c(C)n(C)n(-c4ccccc4)c3=O)c3ccccc3n2)cc1 (stereo not given) | -4% | 6 | -12% | 4.5%
COc1cc(OC)c(/C=N/NC(=O)Cn2nc([N+](=O)[O-])cc2C)c(OC)c1 | 0% | -12 | 8% | 3.8%
O=C(NCC(=O)N1CCN(c2ccccc2O)CC1)C1CCCCC1 | / | / | 18% | -1.8%
CSc1nnnn1-c1ccc(C(=O)OCC(=O)N2CCOCC2)cc1 | 0% | 3 | -1% | 0.2%
Cc1cc(=S)c2ccccc2[nH]1 | 4% | 4 | 8% | 7.5%
COc1ccc(CCNC(=O)Cn2cnc3c(cnn3C(C)(C)C)c2=O)cc1OC | 7% | -8 | 3% | -0.2%
COc1ccc(CNC(=O)[C@H](C)N2C(=O)N3CCc4c([nH]c5ccccc45)[C@@]3(C)C2=O)cc1OC | 14% | / | -7% | 0.6%
Cc1ccccc1NC(=O)COc1ccc(Br)cc1CNCCCO | -3% | 3 | 2% | 0.7%
CCN1CCN(Cc2ccc(NC(=O)c3ccc(C)c(NC(=O)c4nccnc4N)c3)cc2C(F)(F)F)CC1 | ? | -21 | 10% | 0.0%
COc1ccc(CCNC(=O)c2cc3c(F)cccc3s2)cc1OC | 11% | / | -2% | 0.5%
CC(C)C[C@H](NS(=O)(=O)c1ccc(Br)cc1)C(=O)O | -4% | -2 | 10% | 0.1%
COc1cc([N+](=O)[O-])ccc1NC(=O)Nn1cnnc1 | 0% | / | -2% | -1.5%
Cc1cc(C)cc(C(=O)NCCN2CCOCC2)c1 | -2% | / | -10% | -1.7%
Cc1ccc(NC(=O)CSc2ccc3nnc(-c4cccnc4)n3n2)cc1 | -7% | / | 1% | 0.2%
CC(C)C[C@H](NC(=O)OC(C)(C)C)C(=O)N1CCC(C(=O)N[C@@H](Cc2c[nH]c3ccccc23)C(=O)O)CC1 | 5% | / | 17% | -0.9%
Cc1c(C)n(Cc2ccc(Cl)cc2)c2ccc(C(=O)NCCN3CCOCC3)cc12 | 17% | / | 5% | 2.5%
CCCOc1ccc(C2c3c(oc4cc(C)c(C)cc4c3=O)C(=O)N2CCCN(C)C)cc1 (stereo not given) | -13% | -1 | 12% | 0.5%
COc1ccc(CNc2ccccc2SC)cc1OC | -29% | -17 | 10% | 3.5%
CCN(CC)/C(N)=N/c1nc(C)cc(C)n1 | 0% | 7 | -11% | 0.5%
COc1cc(NC(=O)c2ccccc2-n2cnnn2)cc(OC)c1 | / | / | -6% | 5.9%
CCOC(=O)c1c(C)[nH]c(C(=O)COC(=O)CNC(=O)c2ccc(Br)cc2)c1C | -5% | 5 | 10% | -2.5%
CC(=O)C(Cl)C(=O)Nc1ccccc1 (stereo not given) | 16% | 7 | -3% | -5.1%
CCC(=O)Nc1cc2c(cc1C(C)=O)OCCO2 | -1% | -8 | 3% | -0.9%
O=C(c1ccco1)N1CCN=C1SCc1cccnc1 | -7% | 4 | -13% | -2.8%
Fc1ccc2nc(N3CCCC3)sc2c1 | -69% | -10 | -4% | 3.7%
COc1cccc(CCNC(=O)CCc2nnc(-c3cc(C)oc3C)o2)c1 | 0% | / | -18% | -0.2%
CC1CN(C=O)CC(C)N1CCN1C(C)CN(C=O)CC1C (stereo not given) | / | / | 20% | 0.2%
O=C(Nc1nc2ccc(Cl)cc2s1)c1ccco1 | -5% | -2 | 31% | 0.1%
CCOc1ccc(C(=O)COC(C)=O)cc1 | -2% | 0 | 19% | ?
O=C(CN1CCOCC1)N/N=C/c1cc2ccccc2nc1Cl | -13% | -1 | -1% | -3.6%
